FGF22 binding – binders of recombinant human FGF22 by thermal shift | Q9HCT0 | SYPRO orange fluorescence; percent of sucrose octasulfate shift, DMSO zero | calls only at 9.99 µM | 340,000 tested, 1.5% active | AID 651658;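 active = melting point raised past a set limit in the mean and every replicate; three in four hits are not shown here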
Target sequence (Q9HCT0 whole entry, looked up): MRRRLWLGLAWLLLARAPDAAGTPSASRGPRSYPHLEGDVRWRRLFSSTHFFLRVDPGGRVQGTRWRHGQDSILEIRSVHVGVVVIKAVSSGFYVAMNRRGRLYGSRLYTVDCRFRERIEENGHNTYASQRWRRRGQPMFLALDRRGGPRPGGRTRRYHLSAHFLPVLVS
AF4-AF9 inh – inhibitors of human MLL-AF4/AF9 interaction; AlphaScreen, biotin-AF4 peptide binding to FLAG-AF9; inhibition, % at 10 µM; 350,000 tested, 0.47% active;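 active = every replicate reaching a set inhibition limit, whatever the replicate mean, cut at about 25% in these data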;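 also: 0% = plate neutral control median and 100% = total signal loss; the record names both 10 and 1 µM as test concentration; the first replicate is given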
Target sequence (P42568 whole entry, looked up): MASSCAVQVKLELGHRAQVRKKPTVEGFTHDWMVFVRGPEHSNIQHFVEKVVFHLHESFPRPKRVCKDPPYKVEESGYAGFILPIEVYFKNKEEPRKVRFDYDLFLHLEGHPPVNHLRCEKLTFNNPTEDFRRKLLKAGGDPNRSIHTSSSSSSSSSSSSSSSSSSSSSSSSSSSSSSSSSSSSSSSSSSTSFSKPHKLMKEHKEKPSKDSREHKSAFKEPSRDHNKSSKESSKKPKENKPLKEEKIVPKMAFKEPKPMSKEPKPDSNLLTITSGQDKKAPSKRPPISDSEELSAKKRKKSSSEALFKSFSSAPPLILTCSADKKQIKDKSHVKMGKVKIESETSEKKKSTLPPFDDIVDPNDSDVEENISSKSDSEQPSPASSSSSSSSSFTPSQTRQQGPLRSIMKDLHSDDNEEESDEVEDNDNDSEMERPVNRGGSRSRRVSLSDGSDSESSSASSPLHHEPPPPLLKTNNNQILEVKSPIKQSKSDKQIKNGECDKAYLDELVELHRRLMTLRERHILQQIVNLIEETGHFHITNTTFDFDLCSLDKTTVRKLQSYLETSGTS
The depositor's hits bear a star; i = inactive.

A first look:
SMILES	FGF22 binding	AF4-AF9 inh
C[C@H](CO)N1C[C@H](C)[C@@H](CN(C)C)Oc2ccc(NS(=O)(=O)c3ccccc3)cc2CC1=O	i	-7.2
C[C@H](CO)N1C[C@H](C)[C@@H](CN(C)Cc2ccccc2)Oc2ccc(NC(=O)CCN3CCOCC3)cc2CC1=O	i	5.6
C[C@@H]1CN([C@H](C)CO)C(=O)c2cccc(NC(=O)Nc3ccccc3)c2O[C@H]1CN(C)S(=O)(=O)c1cn(C)cn1	i	-1.0

The list itself (from the top)
SMILES	FGF22 binding	AF4-AF9 inh
C[C@H](CO)N1C[C@H](C)[C@@H](CN(C)C)Oc2ccc(NS(=O)(=O)c3ccccc3)cc2CC1=O	i	-7.2
C[C@H](CO)N1C[C@H](C)[C@@H](CN(C)Cc2ccccc2)Oc2ccc(NC(=O)CCN3CCOCC3)cc2CC1=O	i	5.6
C[C@@H]1CN([C@H](C)CO)C(=O)c2cccc(NC(=O)Nc3ccccc3)c2O[C@H]1CN(C)S(=O)(=O)c1cn(C)cn1	i	-1.0
C[C@@H]1CN([C@@H](C)CO)C(=O)c2cc(NS(=O)(=O)c3cn(C)cn3)ccc2O[C@@H](C)CCCCO[C@H]1CN(C)Cc1ccc(C(F)(F)F)cc1	i	0.7
CNC[C@H]1Oc2c(NC(=O)C3CCOCC3)cccc2C(=O)N([C@@H](C)CO)C[C@H]1C	i	-22
CCCC(=O)Nc1ccc2c(c1)C(=O)N(C)C[C@H](OC)[C@@H](C)CN(Cc1ccccc1)[C@H](C)CO2	i	3.2
O=C(Nc1ccc(F)cc1)N[C@@H]1CC[C@H](CCNS(=O)(=O)c2ccccc2F)O[C@@H]1CO	i	-0.8
O=C(C[C@H]1CC[C@@H](NC(=O)c2ccccc2)[C@@H](CO)O1)NCc1ccncn1	i	1.0
C[C@H](NC(=O)C[C@@H]1C[C@H]2c3cc(NC(=O)CC4CC4)ccc3O[C@H]2[C@@H](CO)O1)c1ccccc1	i	-4.1
C[C@H]1CN([C@@H](C)CO)C(=O)c2cccc(NS(=O)(=O)c3ccc(Cl)cc3)c2O[C@H]1CN(C)CC1CCCCC1	i	3.7
O=C(c1cccnc1)N1C[C@@H]2[C@H](c3ccccc31)[C@@H](CO)N2C(=O)C1CC1	i	0.8
C[C@H]1CN([C@@H](C)CO)C(=O)Cc2cc(NC(=O)Cc3ccccc3)ccc2O[C@@H]1CN(C)S(=O)(=O)c1ccc(F)cc1	i	-2.6
O=C(C[C@@H]1CC[C@@H](NC(=O)NC2CCCCC2)[C@H](CO)O1)NCc1ccc(F)cc1	i	-0.5
C[C@@H]1CN([C@H](C)CO)C(=O)c2cccc(NC(=O)Nc3ccc(C(F)(F)F)cc3)c2O[C@@H]1CN(C)C(=O)Nc1cccc2ccccc12	i	4.9
CN(C)C(=O)C[C@H]1CC[C@@H](NC(=O)c2ccc(F)cc2)[C@H](CO)O1	i	-4.3
CN1c2ccc(-c3cccc(C#N)c3)cc2[C@@H]2[C@@H](CCN2S(=O)(=O)c2ccc(F)cc2)[C@@H]1CO	i	-3.6
C[C@@H]1CN([C@H](C)CO)C(=O)c2cc(N(C)C)ccc2O[C@H]1CN(C)S(=O)(=O)c1ccc(F)cc1	i	-2.3
CCCC(=O)Nc1ccc2c(c1)C(=O)N(C)C[C@@H](OC)[C@H](C)CN(C(C)=O)[C@@H](C)CO2	i	-0.9
CO[C@@H]1CN(C)C(=O)c2cc(NS(=O)(=O)c3cccc(F)c3)ccc2OC[C@H](C)N(C(=O)Cc2cccnc2)C[C@H]1C	i	0.9
C/C=C/c1ccccc1[C@H]1[C@@H](CO)N(C(=O)NC2CCCCC2)[C@H]1C#N	i	2.0
CN(C)C(=O)C[C@@H]1CC[C@@H](NC(=O)c2ccc(F)cc2)[C@@H](CO)O1	i	-2.2
O=C1C=CCCN1C(=O)/C=C/c1cccc(Br)c1	i	0.9
O=C(N[C@@H]1CC[C@H](CCNC(=O)C2CCOCC2)O[C@@H]1CO)c1ccncc1	i	-0.1
CC(=O)N1[C@@H]2c3ccc(-c4ccncc4)c(=O)n3C[C@@H]2[C@@H](CO)[C@@H]1C(=O)NCc1ccccc1Cl	i	-0.6
Cc1noc(C)c1S(=O)(=O)Nc1cccc2c1O[C@@H](CN(C)Cc1ccc(C(=O)O)cc1)[C@@H](C)CN([C@@H](C)CO)C2=O	i	-5.6
COc1ccc(CN(C)C[C@@H]2OCCCC[C@H](C)Oc3ccc(NS(=O)(=O)c4ccccc4)cc3C(=O)N([C@@H](C)CO)C[C@@H]2C)cc1	i	5.5
Cc1noc(C)c1NC(=O)Nc1cccc2c1O[C@H](CN(C)Cc1ccc(-c3ccccc3)cc1)[C@H](C)CN([C@@H](C)CO)C2=O	i	-0.5
C[C@@H]1CN([C@@H](C)CO)C(=O)c2cc(NC(=O)C3CCCCC3)ccc2O[C@@H](C)CCCCO[C@@H]1CN(C)S(=O)(=O)c1cccs1	i	-1.4
CCCNC(=O)C[C@H]1CC[C@H]2[C@H](COc3ccc(NC(=O)c4cccc(F)c4)cc3C(=O)N2C)O1	i	-1.9
CN1C[C@H]2[C@@H](c3ccccc31)[C@H](CO)N2Cc1ccccc1F	i	-0.4

Whole records, quoted from the list:
`C[C@@H]1CN([C@@H](C)CO)C(=O)c2cc(NC(=O)C3CCCCC3)ccc2O[C@@H](C)CCCCO[C@@H]1CN(C)S(=O)(=O)c1cccs1` as listed: FGF22 binding: i; AF4-AF9 inh: -1.4
`COc1ccc(CN(C)C[C@@H]2OCCCC[C@H](C)Oc3ccc(NS(=O)(=O)c4ccccc4)cc3C(=O)N([C@@H](C)CO)C[C@@H]2C)cc1` as listed: FGF22 binding: i; AF4-AF9 inh: 5.5
`CO[C@@H]1CN(C)C(=O)c2cc(NS(=O)(=O)c3cccc(F)c3)ccc2OC[C@H](C)N(C(=O)Cc2cccnc2)C[C@H]1C` as listed: FGF22 binding: i; AF4-AF9 inh: 0.9

The list goes on:
SMILES	FGF22 binding	AF4-AF9 inh
O=C(C[C@H]1CC[C@H]2[C@@H](COC[C@@H](O)CN2Cc2ccncc2)O1)NCc1ccncc1	i	-4.4
C[C@@H]1CCCCO[C@H](CN(C)S(=O)(=O)c2ccccc2)[C@@H](C)CN([C@@H](C)CO)C(=O)c2cc(NS(=O)(=O)c3ccc(F)cc3)ccc2O1	i	1.7
C[C@@H]1CN([C@H](C)CO)C(=O)c2cc(NC(=O)Cn3cnnn3)ccc2O[C@@H]1CN(C)Cc1ccncc1	i	-0.8
CCCNC(=O)Nc1ccc2c(c1)OC[C@H](C)N(Cc1cccnc1)C[C@H](C)[C@H](OC)CN(C)C2=O	i	-2.1
CC(=O)N1[C@H](CO)[C@H](c2ccccc2)[C@H]1CNC(=O)CN1CCOCC1	i	-0.4
COc1ccc(C#Cc2ccc3c(c2)O[C@H](CN(C)S(=O)(=O)c2ccccc2F)[C@H](C)CN([C@@H](C)CO)S3(=O)=O)cc1	i	-2.1
CCNC(=O)[C@@H]1[C@@H](CO)[C@@H]2Cn3c(ccc(-c4ccccc4)c3=O)[C@H]1N2C(=O)c1ccccn1	i	4.1
CC(C)NC(=O)Nc1ccc2c(c1)C(=O)N([C@@H](C)CO)C[C@H](C)[C@@H](CN(C)C(=O)CCC(F)(F)F)OCCCC[C@H](C)O2	i	-4.5
CC(C)NC(=O)Nc1cccc2c1O[C@H](CN(C)S(=O)(=O)c1ccccc1)[C@@H](C)CN([C@@H](C)CO)C2=O	i	-1.9
C[C@@H]1CN([C@H](C)CO)C(=O)c2cc(NC(=O)Nc3ccc(C(F)(F)F)cc3)ccc2O[C@@H]1CN(C)Cc1ccncc1	i	2.2
COCC#Cc1cnc2c(c1)C(=O)N([C@@H](C)CO)C[C@H](C)[C@H](CN(C)C(=O)C1CC1)O2	i	-2.8
C[C@@H]1CN([C@@H](C)CO)C(=O)c2cc(NC(=O)Nc3ccc(F)cc3)ccc2O[C@@H]1CN(C)Cc1ccc(Cl)c(Cl)c1	i	-3.8
CC(C)(C)c1ccc(S(=O)(=O)N2CCN(C(=O)C(=O)c3cccc(C(F)(F)F)c3)CC2)cc1	i	1.3
COc1ccc(CN(C)C[C@@H]2OCCCC[C@H](C)Oc3ccc(NC(=O)C4CCCCC4)cc3C(=O)N([C@H](C)CO)C[C@@H]2C)cc1	i	-7.9
C[C@H](CO)N1C[C@H](C)[C@@H](CN(C)C(=O)Nc2ccc(F)cc2)Oc2ccc(NC(=O)Cc3cn(C)c4ccccc34)cc2CC1=O	i	4.4
COc1cccc(S(=O)(=O)N[C@H]2CC[C@@H](CCn3cc(-c4ccccn4)nn3)O[C@@H]2CO)c1	i	-1.4
CNC(=O)C[C@H]1CC[C@H]2[C@@H](COc3ccc(NC(=O)c4ccc(C#N)cc4)cc3C(=O)N2C)O1	i	-5.9
O=C(C[C@@H]1C=C[C@@H](NC(=O)C2CC2)[C@@H](CO)O1)Nc1ccccc1	i	0.6
Cc1noc(C)c1NC(=O)N(C)C[C@H]1Oc2ccc(NC(=O)Nc3cccc4ccccc34)cc2CC(=O)N([C@@H](C)CO)C[C@@H]1C	i	-0.4
C[C@@H]1CN([C@@H](C)CO)C(=O)c2cc(-c3cncnc3)cnc2O[C@@H]1CN(C)CC1CCOCC1	i	-3.6
C[C@H](CO)N1C[C@H](C)[C@@H](CN(C)S(=O)(=O)c2cccs2)Oc2ccc(NC(=O)c3ccncc3)cc2CC1=O	i	0.7
C[C@H](CO)N1C[C@H](C)[C@H](CN(C)C(=O)Nc2ccc3c(c2)OCO3)Oc2c(NC(=O)c3ccc(-c4nccs4)cc3)cccc2C1=O	i	2.3
C[C@H](CO)N1C[C@H](C)[C@H](CN(C)C(=O)c2ccc3c(c2)OCO3)Oc2cc(-c3cccnc3)ccc2S1(=O)=O	i	5.8
O=C([C@H]1[C@H](CO)[C@H]2Cn3c(cccc3=O)[C@H]2N1Cc1ccccc1Cl)N1CCOCC1	i	-2.9
C/C=C/c1ccc([C@H]2[C@H](CO)N[C@@H]2CN(CC)C(=O)c2cccnc2)cc1	i	3.2
O=C(C[C@H]1C[C@H]2c3cc(NC(=O)C4CCOCC4)ccc3O[C@H]2[C@@H](CO)O1)NCc1ccccc1	i	0.8
C[C@H]1CN([C@@H](C)CO)C(=O)Cc2cc(NC(=O)c3ccncc3)ccc2O[C@H]1CN(C)S(=O)(=O)c1ccc(F)cc1	i	-0.2
CCCNC(=O)N1[C@H](C#N)[C@H](c2ccccc2-c2ccc(OC)cc2)[C@@H]1CO	i	4.2
O=C(C[C@H]1C[C@@H]2c3cc(NC(=O)Nc4ccc(F)cc4)ccc3O[C@@H]2[C@H](CO)O1)NC1CCCC1	i	0.5
CNC[C@@H]1Oc2c(NS(=O)(=O)c3ccc(C)cc3)cccc2C(=O)N([C@@H](C)CO)C[C@@H]1C	i	-2.3
C[C@H](CO)N1C[C@H](C)[C@H](CN(C)C(=O)Nc2ccc3c(c2)OCO3)Oc2ncc(C#CC(C)(C)O)cc2C1=O	i	-0.8
COc1ccc(S(=O)(=O)Nc2ccc3c(c2)C(=O)N([C@H](C)CO)C[C@@H](C)[C@@H](CN(C)C(=O)C2CCCCC2)OCCCC[C@@H](C)O3)cc1	i	5.1
C[C@H](CO)N1C[C@H](C)[C@H](CN(C)S(C)(=O)=O)Oc2c(NC(=O)C3CC3)cccc2C1=O	i	-1.0
O=C(N[C@H]1CC[C@H](CCNS(=O)(=O)c2cccc(Cl)c2)O[C@@H]1CO)c1ccccc1	i	-1.1
C[C@@H]1CN([C@H](C)CO)S(=O)(=O)c2ccc(C#CC3(O)CCCC3)cc2O[C@H]1CN(C)C(=O)Cc1cccnc1	i	-0.3
O=C(Cc1cccnc1)N[C@@H]1CC[C@@H](CCn2cc(-c3ccccc3F)nn2)O[C@H]1CO	i	-6.2
O=C(C[C@@H]1C[C@H]2c3cc(NC(=O)NC4CCCC4)ccc3O[C@H]2[C@H](CO)O1)NCCN1CCCCC1	i	6.6
C[C@@H]1CN([C@H](C)CO)C(=O)c2cc(-c3cccnc3)cnc2O[C@@H]1CN(C)C	i	-5.4
COc1ccc(S(=O)(=O)Nc2ccc3c(c2)C(=O)N([C@H](C)CO)C[C@H](C)[C@H](CN(C)C(=O)c2ccncc2)OCCCC[C@@H](C)O3)cc1	i	-4.2
Cc1ccc(S(=O)(=O)N(C)C[C@H]2OCCCC[C@@H](C)Oc3ccc(NS(C)(=O)=O)cc3C(=O)N([C@@H](C)CO)C[C@H]2C)cc1	i	0.0
COc1cc(OC)cc(-c2cc3nc4c(c(N5CCN(c6cnccn6)CC5)n3n2)CCCC4)c1	i	-9.2
CC(C)NC(=O)N[C@@H]1CC[C@@H](CCNC(=O)C2CCOCC2)O[C@@H]1CO	i	0.3
CC(C)NC(=O)Nc1ccc2c(c1)C(=O)N([C@@H](C)CO)C[C@H](C)[C@@H](CN(C)Cc1ccc(Cl)c(Cl)c1)OCCCC[C@H](C)O2	i	8.3
CC(C)NC(=O)N1CC2(C1)[C@@H](c1ccccc1)[C@@H](CO)N2C(=O)C1CCOCC1	i	-3.1
COc1ccc2c3c([nH]c2c1)[C@@H](CO)N(C(C)=O)CC31CN(S(=O)(=O)c2cccs2)C1	i	5.6
COCC(=O)N1[C@@H](C#N)[C@H](c2ccccc2-c2cccc(F)c2)[C@@H]1CO	i	-1.9
CN1C(=O)c2cc(NC(=O)NC3CCCC3)ccc2OC[C@H]2O[C@H](CC(=O)NC3CCC3)CC[C@@H]21	i	-1.3
COc1ccccc1NC(=O)N1CCCCN2[C@H](C1)[C@@H](c1ccc(-c3ccccc3)cc1)[C@@H]2CO	i	-4.7
CCCC(=O)Nc1ccc2c(c1)C(=O)N(C)C[C@H](OC)[C@H](C)CN(CCC(F)(F)F)[C@H](C)CO2	i	-0.4

From PubChem

An excerpt (hit frequency here may not be typical).
